Screens as filed in PubChem.
Sa growth inh – S. aureus growth inhibition | S. aureus RN4220 growth, OD600, 20 h, 42 °C; active compounds read low | relative growth, % (no concentration beside the values) | hit rate 0.53% among 170,000 | AID 720641;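 active = growth at 42 °C up to 50% and 20 or more points under that at 30 °C, or under 10% at both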;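 also: 300 nL library stock went into each well; scaled to the means of positive and negative controls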
GIV Gai3 FP – inhibitors of GIV GBA-motif binding to rat Galpha-i3; Galpha-i3/FITC-GIV peptide fluorescence polarization, 90 min; active compounds read low; scaled: aluminum fluoride 0%, vehicle 100%; percent of control (FP), % (test concentration not listed); hit rate 0.42% among 210,000; AID 1224905;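 active = replicate mean at 85% of control or lower, very high polarization wells dropped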;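 also: lower values mean more displacement of the GIV peptide from Galpha-i3; wells of about 15 µL received 100 nL stock; the first replicate is given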
Target sequence (P08753 whole entry, looked up): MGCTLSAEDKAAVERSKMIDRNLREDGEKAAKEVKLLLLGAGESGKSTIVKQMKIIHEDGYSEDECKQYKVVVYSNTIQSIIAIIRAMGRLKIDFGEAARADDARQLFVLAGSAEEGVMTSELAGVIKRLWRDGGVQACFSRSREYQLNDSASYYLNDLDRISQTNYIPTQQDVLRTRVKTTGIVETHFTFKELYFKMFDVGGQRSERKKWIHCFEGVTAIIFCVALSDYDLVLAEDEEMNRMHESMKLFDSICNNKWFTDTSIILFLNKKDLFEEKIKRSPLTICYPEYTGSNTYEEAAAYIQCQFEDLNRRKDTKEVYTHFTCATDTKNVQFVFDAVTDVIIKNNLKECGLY
HCMV UL50-53 inh – cytomegalovirus nuclear egress complex inhibition; HTRF UL50-UL53 interaction, normalized percent inhibition; hit rate 0.15% among 190,000; inhibition, % (concentration not given with the values); AID 1918969;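 active = both replicates at 50% or more, plus weaker picks with an unusually low signal ratio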;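 also: stock transfer was 100 nL into about 20 µL; 0% = negative control wells and 100% = wells with untagged competitor protein; inactives centre near -12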
Sa growth inh second temp – further read-out of Sa growth inh, marked with its call; relative growth, %; measured here: growth at 30 °C;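 optical density after 20 h as mean of two plates; 100% = untreated growth and lower means inhibition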
Starred values were filed as active, the others as inactive; · = not tested or not shown; & = joins results of further samples.

SMILES | Sa growth inh | Sa growth inh second temp | GIV Gai3 FP | HCMV UL50-53 inh
CC1=CCC(C(=O)O)C(C(=O)Nc2ccc(-c3nc4ccc(C)cc4s3)cc2)C1 (stereo unspecified) | 117 | 26 | · | -55
Cc1ccccc1C(=O)OCCN1CCCCC1 | 112 | 92 | 107 | 0
Cc1cc(Nc2nc(C(=O)NC(C)C)cc3occc23)ccc1Br | · | · | 102 | -12
COc1cc2[nH]c(=O)n(CCCC(=O)N3CCN(c4cccc(C)c4C)CC3)c(=O)c2cc1OC | · | · | 103 | -22
Cn1c(=O)c2c(nc(Oc3ccc(F)cc3)n2Cc2ccc(F)cc2)n(C)c1=O | 115 | 86 | 103 | ·
O=C(O)c1ccc(N2C(=O)c3[nH]nc(-c4ccccc4)c3C2c2ccc(Cl)cc2)cc1 (stereo unspecified) | · | · | 97 | -8
CCn1cc2c(n1)-c1c(oc(C(=O)Nc3ccc(Br)cc3F)c1C)CC2 | 128 | 97 | 96 | -9
CC1CCC(NC(=O)Cn2nc(N3CCN(c4ccccc4)CC3)ccc2=O)CC1 (stereo unspecified) | · | · | 107 | -22
CS(=O)(=O)NCCc1nc(-c2ccccc2)cs1 | 106 | 87 | 103 | -14
CC(NC(=O)NC1CCN(c2nc3ccccc3s2)CC1)c1cccs1 (stereo unspecified) | 86 | 78 | 99 | 14
CC1CCN(C(=O)CSc2nc3ccccc3nc2Cc2ccccc2)CC1 | 85 | 68 | 102 | ·
CC(C)Oc1ccc(CNC(=O)c2ccc3c(c2)N(Cc2ccc(F)cc2)CCS3)cc1 | 124 | 87 | 102 | 13
COC(=O)c1ccc([C@@H]2Nc3c(C)cccc3[C@@H]3C=CC[C@@H]32)cc1 | 110 | 60 | 113 | ·
COc1ccc2c(Sc3ccccc3)c(C(=O)NCCc3ccc(Cl)cc3)[nH]c2c1 | 108 | 84 | 109 | -22
COC(=O)C(C)Nc1n[nH]c(=O)[nH]c1=O (stereo unspecified) | 103 | 92 | 97 | -17
COC(=O)c1sccc1NC(=O)CCCC(=O)O | 87 | 87 | · | -23
Cc1ccc(SC2=C(N3CCOCC3)C(=O)N(c3cc(C)cc(C)c3)C2=O)cc1 | 108 | 92 | 110 | ·
CCn1cc(C(=O)NCCCOC(C)C)c(=O)c2cc(S(=O)(=O)N3CCc4ccccc4C3)ccc21 | 95 | 88 | 105 | 12
COC(=O)c1sc(S(=O)(=O)NC(C)C(=O)O)c(C(=O)OC)c1C (stereo unspecified) | 101 | 86 | 101 | -15
c1ccc(CCn2c3ccccc3c3nc4ccccc4nc32)cc1 | 84 | 71 | 103 | ·

Full records, looked up by structure:
Profile of `CCn1cc(C(=O)NCCCOC(C)C)c(=O)c2cc(S(=O)(=O)N3CCc4ccccc4C3)ccc21` → Sa growth inh = 95; Sa growth inh second temp = 88; GIV Gai3 FP = 105; HCMV UL50-53 inh = 12
Profile of `CC1CCC(NC(=O)Cn2nc(N3CCN(c4ccccc4)CC3)ccc2=O)CC1` (stereo unspecified) → Sa growth inh = ·; Sa growth inh second temp = ·; GIV Gai3 FP = 107; HCMV UL50-53 inh = -22

Returning to the listing, starting five compounds before the break.
SMILES | Sa growth inh | Sa growth inh second temp | GIV Gai3 FP | HCMV UL50-53 inh
COC(=O)c1sccc1NC(=O)CCCC(=O)O | 87 | 87 | · | -23
Cc1ccc(SC2=C(N3CCOCC3)C(=O)N(c3cc(C)cc(C)c3)C2=O)cc1 | 108 | 92 | 110 | ·
CCn1cc(C(=O)NCCCOC(C)C)c(=O)c2cc(S(=O)(=O)N3CCc4ccccc4C3)ccc21 | 95 | 88 | 105 | 12
COC(=O)c1sc(S(=O)(=O)NC(C)C(=O)O)c(C(=O)OC)c1C (stereo unspecified) | 101 | 86 | 101 | -15
c1ccc(CCn2c3ccccc3c3nc4ccccc4nc32)cc1 | 84 | 71 | 103 | ·
COc1ccc(OC)c(CNC(=O)Cn2nc(C)c3nn(-c4ccc(Cl)cc4)c(C)c3c2=O)c1 | 122 | 94 | 101 | ·
CC(C)(C)c1ccc(OCc2nnc(-c3ccccc3)o2)cc1 | 83 | 76 | 102 | -2
CCOC(=O)N1c2ccccc2Sc2ccccc21 | 115 | 82 | 103 | -7
CC(C)CCNC(=O)CCCCn1c(=O)c2ccccc2n(CC(=O)Nc2ccc(Cl)cc2)c1=O | · | · | 106 | -4
Cc1ccnc(NC(=O)Nc2ccccc2)c1 | 125 | 79 | 97 | -8
Cn1nc(C(=O)N2CCC(C(N)=O)CC2)c2ccccc2c1=O | 99 | 89 | · | 0
CCCn1c(=O)c2ccc(C(=O)NC(C)C)cc2n2c(SCc3ccccc3C)nnc12 | · | · | 108 | -39
CN1CCN(c2ccc3c(ccc4c5ccccc5[nH]c34)n2)CC1 | 55 | 34 | 101 | -2
Cc1cc(N2CCN(c3ccccn3)CC2)n2nc(C(F)(F)F)c(-c3ccc(F)cc3)c2n1 | · | · | 100 | -17
COc1cccc(CNC(=O)CSc2nc3ccccc3nc2Cc2ccc(C)cc2)c1OC | 89 | 86 | 102 | ·
CCCN(CCC)CCNC(=O)c1c(C)oc2ncnc(N3CCOCC3)c12 | · | · | 102 | -9
COC(=O)c1sccc1Oc1ccc(C(F)(F)F)cc1NC(=O)Nc1ccc(Cl)cc1 | 108 | 88 | 101 | -26
CCn1c(CCNC(=O)Cc2c(F)cccc2Cl)nnc1SC | 112 | 88 | 97 | -17
Cc1ccc(NC(=O)N2CCC(CN3CCCCC3)CC2)c(Cl)c1 | 110 | 87 | 105 | ·
Cn1nc(C(=O)NC2CCCc3ccccc32)c2c1-c1cc(F)ccc1SC2 (stereo unspecified) | · | · | 105 | -37
COC(=O)c1ccc(C(c2c(N)n(CC(C)C)c(=O)[nH]c2=O)N2CCOCC2)cc1 (stereo unspecified) | 92 | 94 | · | -32
O=C(Cn1cnc2c(oc3ccccc32)c1=O)Nc1ccc(F)cc1F | 77 | 89 | 114 | ·
CCOC(=O)C1CCCN(C(=O)c2ccc(CS(=O)c3ccccc3)o2)C1 (stereo unspecified) | 85 | 84 | 103 | ·
COc1ccc(-c2cc(C(=O)N3CCN(c4ccccc4OC)CC3)c3ccccc3n2)cc1 | · | · | 107 | 9
CN1/C(=C/c2cccc[n+]2C)C=Cc2ccccc21 | 69 | 46 | 95 | ·
Cc1nn(C)cc1S(=O)(=O)N1CCCc2ccccc21 | 100 | 95 | 104 | -34
Cc1ccc(Cc2c(C)nn(-c3nc(C)c(C(=O)N4CCCCC4C)s3)c2C)cc1 (stereo unspecified) | 105 | 88 | 98 | -14
CC1=NNC(=O)CC1 | 92 | 92 | 100 | -10
COC(=O)c1cccc(N2C(=O)c3ccc(C(=O)OC)cc3C2=O)c1 | 104 | 91 | 104 | ·
S=c1nc[nH]c2c1cnn2-c1ccc(Cl)cc1 | 116 | 103 | 99&105 | 21&-8
CCc1ccccc1NC(=O)Cn1c(=O)n(CC(=O)NCCc2ccccc2)c(=O)c2ccccc21 | 109 | 94 | 102 | -15
Cc1ccc(C)c(S(=O)(=O)Nc2cc(Cl)c3oc(=O)sc3c2)c1 | 26 | 20 | 104 | -26
Cn1c(C(O)c2ccccc2)n[nH]c1=S (stereo unspecified) | 103 | 80 | 101 | 3
CCCc1ccc(OC(=O)CSc2nnc(-c3cccs3)o2)cc1 | 111 | 88 | 103 | -8
O=C(O)c1ccc(S(=O)(=O)c2ccc(Cl)cc2)nc1 | · | · | 97 | -34
CCN(CC)C(=O)CSc1nnc2c3ccccc3n(C)c2n1 | 117 | 78 | 102 | -61
O=C(NCCc1csc(-c2cccc(F)c2)n1)c1ccc(Br)o1 | 68 | 72 | 103 | ·
Cc1ccc(NC(=O)CCn2cccn2)c(C)c1 | 75 | 84 | 94 | ·
COC(=O)c1ccc2c(=O)n(CCCCCC(=O)N3CCN(c4cc(Cl)ccc4C)CC3)c(=O)[nH]c2c1 | 95 | 100 | 109 | ·
Cc1ccc(S(=O)(=O)N2CCN(C(=O)COC(=O)C3=COCCO3)CC2)c(C)c1 | 127 | 88 | · | -27
CCCCCCCCCc1ccc(OCCOCCOCCOCCOCCOCCOCCOCCOCCO)cc1 | 106 | 105 | · | 8
O=C(NC1CCCC1)C(c1ccc(N2CCOCC2)cc1)N(Cc1ccco1)C(=O)c1ccco1 (stereo unspecified) | 93 | 82 | 103 | -12
C[C@@H](C(=O)N1CCSC1=NCc1ccccc1)N1C(=O)C2CC=CCC2C1=O (stereo partly specified) | 91 | 96 | · | -2
Cc1ccc(-c2noc(CNC(=O)CN(C)S(=O)(=O)c3ccc(C)cc3)n2)cc1 | 119 | 102 | 98 | -3
CSc1nc2ccccc2n1CC(=O)N1CCN(c2ccccc2)CC1 | 100 | 91 | · | -27
Cc1ccc(Cl)cc1N1CCN(C(=O)C2CCN(S(=O)(=O)Cc3ccccc3)CC2)CC1 | 103 | 86 | 101 | -20
Cn1c(=O)c2sccc2n2c(CCCC(=O)Nc3ccc(Oc4ccc(Cl)cc4)cc3)nnc12 | 103 | 52 | 107 | ·
Cn1ccnc1SCC(=O)Nc1ccc(S(=O)(=O)Nc2ncccn2)cc1 | 86 | 78 | 102 | -31
Clc1ccc(CSCc2cn3ccsc3n2)cc1 | 103 | 71 | · | -4
Nc1c(S(=O)(=O)c2ccccc2)c2nc3ccccc3nc2n1/N=C/c1ccncc1 | 97 | 82 | 105 | -10
COc1ccc(C2=C(C)C(N3CCC(C(=O)NCc4ccccc4Cl)CC3)=NS2(=O)=O)cc1 | · | · | 99 | -21
O=S(=O)(c1cccs1)N1CCN(c2cnccn2)CC1 | 108 | 86 | · | -8
COc1ccc2c(OC)ccc3c2c1C=CC3=O | 107 | 59 | 138 | -120
OCCC12CC3CC(CC(C3)C1)C2 | 91 | 93 | 95 | ·
Cc1ccccc1Nc1nc(CSc2nnc(CN3CCCC3=O)o2)cs1 | 96 | 88 | · | -13
C=CCN=C1NC(=O)C(CC(=O)Nc2ccccc2)S1 (stereo unspecified) | 100 | 91 | 105 | 1
C=CCNc1ncccc1-c1nc(-c2ccc(OC)cc2)no1 | · | · | 102 | -17
CCOC(=O)c1cc(-c2ccccc2)n(CC(=O)NCc2ccccc2OC)c1C | 109 | 87 | 100 | ·
c1ccc(-n2cnnc2SCc2nc3ccccc3s2)cc1 | 102 | 98 | · | -32
CCCCNS(=O)(=O)c1ccc2nc(SC(C)C(=O)N3CCCC3)[nH]c2c1 (stereo unspecified) | 104 | 106 | · | 8
Cc1cc(C)c(S(=O)(=O)Nc2cnc(N3CCCC3)c(C(=O)O)c2)c(C)c1 | · | · | 91 | -34
COc1cccc(-c2cc(C(F)(F)F)n3ncc(C(=O)NCc4ccc(OC)c(OC)c4)c3n2)c1 | · | · | 96 | -18
O=C(NCc1ccco1)C1CCN(c2nc3ccc(Br)cc3s2)CC1 | 99 | 90 | 101 | -13
O=C(CN1CCN(C(=O)N2CCCCC2)CC1)Nc1ccc(F)cc1 | 118 | 73 | 99 | -2
Cc1cccc(-n2ccnc2SCC(=O)Nc2ccc3c(c2)OCO3)c1 | 109 | 76 | 98 | ·

Quoted from the listing:
Cc1ccc(Cl)cc1N1CCN(C(=O)C2CCN(S(=O)(=O)Cc3ccccc3)CC2)CC1 | HCMV UL50-53 inh: -20
COc1ccc2c(OC)ccc3c2c1C=CC3=O | Sa growth inh: 107
CCCCNS(=O)(=O)c1ccc2nc(SC(C)C(=O)N3CCCC3)[nH]c2c1 (stereo unspecified) | HCMV UL50-53 inh: 8
COc1ccc(C2=C(C)C(N3CCC(C(=O)NCc4ccccc4Cl)CC3)=NS2(=O)=O)cc1 | HCMV UL50-53 inh: -21

Three compounds out of the list, ordered by length of the SMILES, highest first.
SMILES | Sa growth inh | Sa growth inh second temp | GIV Gai3 FP | HCMV UL50-53 inh
CC1=CCC(C(=O)O)C(C(=O)Nc2ccc(-c3nc4ccc(C)cc4s3)cc2)C1 (stereo unspecified) | 117 | 26 | · | -55
C[C@@H](C(=O)N1CCSC1=NCc1ccccc1)N1C(=O)C2CC=CCC2C1=O (stereo partly specified) | 91 | 96 | · | -2
CCCCCCCCCc1ccc(OCCOCCOCCOCCOCCOCCOCCOCCOCCO)cc1 | 106 | 105 | · | 8

(next part)
SMILES | Sa growth inh | Sa growth inh second temp | GIV Gai3 FP | HCMV UL50-53 inh
CCOc1cc(C=C2C(=O)N(C)C(=O)N(C)C2=O)ccc1OCc1ccccc1F | · | · | 102 | -25
CC(C)c1ccc(Nc2nc3ccc(C(=O)c4ccccc4)cc3n3cnnc23)cc1 | 80 | 99 | 110 | ·
C=CCOc1ccc2c(=O)c(Oc3cccc(C)c3)coc2c1 | 81 | 91 | 100 | ·
CC1CCc2c(sc(NC(=O)C3c4ccccc4Oc4ccccc43)c2C#N)C1 (stereo unspecified) | 88 | 89 | 106 | -9
CC(=O)Cn1nnc2sc(-c3ccccc3)cc2c1=O | 91 | 77 | 109 | -53
COc1ccc(Nc2ncc(C)s2)cc1 | 83 | 82 | · | -31
